HSV replic up: HSV replication enhancement | HSV replication augmentation in cells, fold increase | maximum fold increase | 220,000 compounds, 0.005% hits | AID 1956;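 active = peak rise of 1.5-fold or more in the series; inconclusive = self-fluorescent or not available for retest; tested in PC3 cells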;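 note: first round at 10 µM; read as green reporter fluorescence; hits show the peak of a series up to 25 µM; 1 = signal of infected wells without compound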
Insulin prom inh: TRM-6 insulin promoter activity inhibition | TRM-6 cells (human fetal islet line), insulin promoter-eGFP reporter, imaging; reporter expression induced with tamoxifen | inhibition, % at 2 µM | 130,000 compounds, 0.9% hits;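 active = inhibition above the mean plus 3 SD, with well images judged a real hit on visual review, cut at about 60% in these data, passing the limit was not always enough; inconclusive = inhibition over the cutoff but images rejected on review; inactive = inhibition not above the cutoff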
PKD1 kinase inh: inhibitors of human PKD1 kinase. inhibition, %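 (about 10 µM by stock and volumes)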. PKD1 kinase fluorescence polarization assay. 200,000 compounds, 0.056% hits. Q15139. AID 797;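 active = inhibition of 50% or more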;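 note: controls were vehicle for no effect and a reference inhibitor for full effect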
Target sequence (Q15139 whole entry, looked up): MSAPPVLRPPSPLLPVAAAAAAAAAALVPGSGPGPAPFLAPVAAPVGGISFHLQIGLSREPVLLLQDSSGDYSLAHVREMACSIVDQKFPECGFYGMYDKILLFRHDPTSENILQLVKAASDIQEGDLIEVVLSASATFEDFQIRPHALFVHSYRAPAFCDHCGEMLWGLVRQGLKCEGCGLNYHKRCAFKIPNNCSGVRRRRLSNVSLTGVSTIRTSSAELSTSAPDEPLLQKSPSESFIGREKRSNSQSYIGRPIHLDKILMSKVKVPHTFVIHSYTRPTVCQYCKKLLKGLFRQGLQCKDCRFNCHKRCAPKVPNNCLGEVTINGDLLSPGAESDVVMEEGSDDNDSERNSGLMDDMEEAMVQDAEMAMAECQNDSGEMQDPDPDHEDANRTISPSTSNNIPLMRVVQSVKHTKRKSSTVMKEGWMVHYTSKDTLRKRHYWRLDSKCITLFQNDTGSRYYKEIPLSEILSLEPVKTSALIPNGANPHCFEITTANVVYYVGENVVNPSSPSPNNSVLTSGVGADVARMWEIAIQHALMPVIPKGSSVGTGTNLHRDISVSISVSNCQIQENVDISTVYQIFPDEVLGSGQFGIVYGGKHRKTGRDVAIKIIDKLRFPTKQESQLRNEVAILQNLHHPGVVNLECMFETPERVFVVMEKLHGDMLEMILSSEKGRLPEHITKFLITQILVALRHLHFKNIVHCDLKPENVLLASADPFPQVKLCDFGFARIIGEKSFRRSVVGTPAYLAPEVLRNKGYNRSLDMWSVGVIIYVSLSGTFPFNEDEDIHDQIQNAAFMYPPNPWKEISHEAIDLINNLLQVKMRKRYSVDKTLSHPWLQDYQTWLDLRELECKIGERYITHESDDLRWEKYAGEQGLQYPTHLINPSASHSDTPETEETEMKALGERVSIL
RGS16-Gao HTS: regulators of human RGS16-Galphao interaction; O15492+P09471; bead-based flow cytometry RGS16-Galphao binding, fluorescence; actives lie on both sides; binding response (% of control), % at 10 µM; 220,000 compounds, 0.38% hits;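 active = below 25% or above 175%, edge rows of some plates excepted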;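 note: Galphao activated by GDP with aluminum fluoride before binding; 100% = wells without compound and 0% = beads without RGS; some results beyond the cut were filed as inactive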
GALR2 agonist: activates the human galanin receptor 2. GALR2-expressing cells, agonist activation read-out. activation, %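 (tested at 5 µM)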. 140,000 compounds, 0.48% hits;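 active = above mean plus 3 SD of all compounds, about 5% in these data, not always enough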;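 note: 0% = vehicle buffer wells and 100% = reference agonist at full effect; tested in CHO reporter cells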
Insulin prom inh cell count: recorded beside Insulin prom inh, whose call it bears; normalized cell count, %; measured here: cell count, toxicity; reference of the scale not given here;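 cells exposed to compound for 48 h; stained nuclei by imaging scaled within each plate; lower means fewer cells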
HSV replic up primary fold: further read-out of HSV replic up, marked with its call; fold increase; compound at 10 µM; measured here: primary screen fold increase 10 uM; tested in PC3 cells;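 GFP signal in the first replicate; 1 = infected wells without compound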
* hit, by the source's call; i = inactive; u = inconclusive; x = no result given.

Preview:
SMILES	HSV replic up	HSV replic up primary fold	Insulin prom inh	Insulin prom inh cell count	PKD1 kinase inh	RGS16-Gao HTS	GALR2 agonist
CC(C)c1ccc(NC(=O)COc2nncc3ccccc23)cc1	i	0.87	x	x	0	100	-0.5
CN(c1ccccc1C(=O)Nc1ccc(S(=O)(=O)N2CCOCC2)cc1)S(C)(=O)=O	i	0.67	-2	79	-10	105	-0.1
Cc1ccc(S(=O)(=O)N(C)C)cc1NC(=O)[C@H](Cc1ccccc1)N1C(=O)c2ccccc2C1=O	i	0.92	57	77	-7	117	-0.4
COCCNC(=O)/C(C#N)=C\c1ccc(CNC(=O)C(=O)Nc2ccc(C)c(C)c2)o1	i	1.1	x	x	-7	98	x
CC1(C)OC(=O)C(=Cc2ccc(-c3ccc(S(N)(=O)=O)cc3)o2)C(=O)O1	i	1.1	-6	114	0	94	x
CN(C)/N=C/c1ccc([N+](=O)[O-])cc1[N+](=O)[O-]	i	0.98	7	84	-7	102	x
O=C(CC1S/C(=N/N=C/c2c[nH]c3ccccc23)NC1=O)Nc1ccccc1 (configuration not stated)	i	1	45	97	-8	76	-0.2

The whole of this part (from the top)
SMILES	HSV replic up	HSV replic up primary fold	Insulin prom inh	Insulin prom inh cell count	PKD1 kinase inh	RGS16-Gao HTS	GALR2 agonist
CC(C)c1ccc(NC(=O)COc2nncc3ccccc23)cc1	i	0.87	x	x	0	100	-0.5
CN(c1ccccc1C(=O)Nc1ccc(S(=O)(=O)N2CCOCC2)cc1)S(C)(=O)=O	i	0.67	-2	79	-10	105	-0.1
Cc1ccc(S(=O)(=O)N(C)C)cc1NC(=O)[C@H](Cc1ccccc1)N1C(=O)c2ccccc2C1=O	i	0.92	57	77	-7	117	-0.4
COCCNC(=O)/C(C#N)=C\c1ccc(CNC(=O)C(=O)Nc2ccc(C)c(C)c2)o1	i	1.1	x	x	-7	98	x
CC1(C)OC(=O)C(=Cc2ccc(-c3ccc(S(N)(=O)=O)cc3)o2)C(=O)O1	i	1.1	-6	114	0	94	x
CN(C)/N=C/c1ccc([N+](=O)[O-])cc1[N+](=O)[O-]	i	0.98	7	84	-7	102	x
O=C(CC1S/C(=N/N=C/c2c[nH]c3ccccc23)NC1=O)Nc1ccccc1 (configuration not stated)	i	1	45	97	-8	76	-0.2
CSc1nc(N2CCN(c3ccccc3)CC2)cc(N2CCN(c3ccccc3)CC2)n1	x	x	23	142	0	98	x
Cc1cccc(N=C2NC(=O)/C(=C/c3cn(C)c4ccccc34)S2)c1	i	1.1	x	x	-10	102	-0.2
COc1ccc(OCC(=O)Nc2cccc(-c3nc4ccccc4[nH]3)c2)cc1	i	0.95	x	x	13	99	-1.4
CCOc1ccc(NC(=S)NC(=O)c2c(Br)cnn2C)c([N+](=O)[O-])c1	i	0.94	36	112	-3	224	-0.3
Cc1ccc(S(=O)(=O)N2CCN(C(=O)COC(=O)c3c(C)noc3C)CC2)c(C)c1	i	0.83	x	x	x	104	x
O=C(Cn1cnc2c(nnn2Cc2ccccc2)c1=O)N1CCN(c2ccccc2)CC1	i	0.94	-10	71	7	100	-0.6
O=C(COC(=O)c1cc(S(=O)(=O)NCc2ccccc2)ccc1O)NCc1ccccc1	x	x	22	104	-5	104	-1.4
CCOc1ccc(-c2nc(S(=O)(=O)c3ccccc3)c(N3CCOCC3)o2)cc1	i	0.97	x	x	-2	100	x
C=CCN1C(=O)/C(=C/C(=O)OC)S/C1=N\NC(=O)c1ccccc1	u	x	x	x	x	107	x
CCOCCCn1c(SCC(=O)/C(C#N)=C(\C)N)nc2ccccc2c1=O	i	1.3	-63	65	17	139	-0.5
O=C(c1ccccc1)C(Sc1ncn[nH]1)c1ccccc1 (configuration not stated)	i	0.88	15	61	-4	101	-0.5
O=C1OC(/C=C/c2ccccc2)=NC/1=C/C=C/c1ccccc1	i	0.92	25	97	3	100	-1.7
CC1CCCN(Cc2cnc(Cl)s2)C1 (configuration not stated)	i	0.91	23	152	2	105	-2.9
COc1ccc(CCNC(=O)CSc2nnc(-c3ccc(F)cc3)c3ccccc23)cc1OC	i	0.9	-24	90	-2	106	0.0
CCCCc1cc(=O)oc2c(CN3CCCC3)c(O)c(Cl)cc12	i	0.86	21	75	4	92	6.7
COC(=O)CSc1nc(-c2ccccc2)nc2ccc(F)cc12	i	0.95	42	106	-11	102	-0.9
CCOC(=O)c1oc2ccccc2c1NC(=O)c1ccc(S(=O)(=O)N(C)C)cc1	i	0.84	3	91	4	96	1.9
Cc1ccccc1CC1(CO)CCCN(C(=O)c2cc(-c3ccccc3)no2)C1 (configuration not stated)	i	0.85	-95	104	-8	114	x
CCCCC(=O)Nc1ccc(C(=O)NNC(=O)CCc2ccccc2)cc1	i	1	x	x	3	98	-1.0
COC(=O)c1ccc(NC(=S)N2CCN(Cc3ccccc3Cl)CC2)cc1	i	1	x	x	-7	183	x
c1ccc(-n2c(-c3ccncc3)nnc2-c2cccs2)cc1	i	0.96	-54	175	9	88	-1.9
COc1cccc2cc(C(C)N(CCCN3CCOCC3)C(=S)Nc3cc(C)cc(C)c3)oc12 (configuration not stated)	i	0.9	-25	104	3	100	x
COc1ccccc1NC(CC(=O)c1ccccc1)C(=O)OCC(=O)c1ccc(C)cc1 (configuration not stated)	i	0.94	x	x	-8	104	-1.0

Some values from the entries so far.
O=C1OC(/C=C/c2ccccc2)=NC/1=C/C=C/c1ccccc1 – PKD1 kinase inh: 3
COc1ccc(CCNC(=O)CSc2nnc(-c3ccc(F)cc3)c3ccccc23)cc1OC – Insulin prom inh: -24

Next entries follow:
SMILES	HSV replic up	HSV replic up primary fold	Insulin prom inh	Insulin prom inh cell count	PKD1 kinase inh	RGS16-Gao HTS	GALR2 agonist
O=C(Cc1ccccc1)NNC1CC(=O)N(c2ccc(Oc3ccccc3)cc2)C1=O (configuration not stated)	i	1.1	x	x	x	82	x
CN(Cc1nc(Cc2ccccc2F)no1)[C@@H]1CS(=O)(=O)C[C@H]1O	i	1	x	x	2	104	x
CCOC(=O)C1CCCN(c2nc3ccccc3nc2C(C#N)C(=O)OCC)C1 (configuration not stated)	i	1	-96	96	-7	103	-0.7
Cc1[nH]c2ccc(-c3n[nH]c(=S)n3-c3ccc(Br)cc3)cc2c1C	i	0.99	29	123	-1	101	x
CC1C(=O)C(C)C(c2ccc3c(c2)OCO3)NC1c1ccc2c(c1)OCO2 (configuration not stated)	i	0.76	x	x	-2	98	-0.6
Cc1ccc(C2CC(c3cccc(Cl)c3)n3nc(N)nc3N2)cc1 (configuration not stated)	i	0.82	50	146	-11	98	-0.9
CC1CCN(C(c2ccccc2)c2nnnn2C(C)(C)C)CC1 (configuration not stated)	i	0.98	-54	128	-8	102	-1.3
Cc1ccc(N/C(=N/S(=O)(=O)c2cccs2)c2ccccc2)c(C)c1	i	0.74	-93	103	10	99	x
COc1cc(OC)cc(-c2nc3nc(C)c(CCC(=O)NCc4ccco4)c(C)n3n2)c1	i	0.89	x	x	-3	101	0.2
O=C(O)c1cccc(Cl)n1	i	1.2	x	x	x	93	x
Cc1ccc2nc(NC(=O)C3=NN(c4ccccc4)C(=O)CC3)sc2c1	i	0.97	x	x	0	91	-0.6
Cc1[nH]n(-c2ccccc2)c(=O)c1CCOC(=O)c1cccc(C(F)(F)F)c1	i	0.72	-4	160	-10	99	-0.3
Cn1c(=O)n(Cc2ccc(F)cc2)c(=O)c2c1nc1n2CCCN1C1CCCCC1	i	1.1	-28	42	-16	100	0.3
Cc1ccc(NC(=O)Cn2cc(S(=O)(=O)c3ccccc3)c(=O)c3cc(F)ccc32)cc1	x	x	5	109	3	112	0.1
CC(C)C(NC(=O)C1CCC(C(C)(C)C)CC1)C(=O)NCc1cccnc1 (configuration not stated)	i	1.2	17	148	0	104	-2.0
COCCN=c1scc(-c2ccccc2)n1/N=C/c1c[nH]c2ccccc12	i	0.8	-12	144	-2	107	-1.6
O=C(Nc1ccc2nsnc2c1)N1CCCCC1	i	0.92	3	101	-5	-588	0.2
O=C1C2CCCN2C(c2ccc(F)cc2)N1c1ccc(Cl)cc1 (configuration not stated)	i	1	x	x	-4	95	-0.2
CCOc1cc(NC(=S)Nc2cccc(C)c2)c(OCC)cc1NC(=O)CC(C)C	i	0.68	33	155	10	96	-1.5
CC(C)(C)[C@H]1C=C(C(=O)N2CCN(Cc3ccccc3)CC2)O[C@@H](OCc2ccc(CO)cc2)C1	i	0.71	x	x	-3	114	x
OCCCc1nc2ccccc2n1CCOc1ccccc1	i	1.1	x	x	1	103	-0.1
O=C(CC1S/C(=N\S(=O)(=O)c2ccccc2)N(c2ccccc2)C1=O)Nc1ccc(F)cc1 (configuration not stated)	i	1	-82	113	-3	109	-0.3
Cc1cccc(N2C(=O)C3C4C=CC(C5CC45)C3C2=O)n1 (configuration not stated)	i	0.92	x	x	x	100	x
Cc1ccc(NC(=O)c2ccccc2Br)cc1S(=O)(=O)N(C)C	i	0.96	-69	116	-6	99	x
O=C(CCl)N=c1sccn1Cc1ccccc1Cl	i	0.64	x	x	x	100	x
CCOC(=O)CCc1c(C)nc2cc(-c3ccccc3OC)[nH]n2c1=O	i	0.84	x	x	-1	99	-0.3
COc1cc2nc(=S)n3[nH]c(COc4ccccc4C)nc3c2cc1OC	i	1	x	x	-1	106	0.7
CCOc1ccc(Cn2nnc(C(=O)Nc3cc(C)cc(C)c3)c2N)cc1	i	0.95	x	x	-15	100	1.2
O=[N+]([O-])c1ccc(N2CCC(=NOCc3ccc(Cl)cc3)CC2)cc1	i	0.97	x	x	-8	95	-2.3
CC1=NN(c2nc3ccccc3[nH]2)C(=O)/C1=C/N(C)C	i	0.83	-33	147	4	98	x
O=c1oc2cc(O)ccc2c2oc3cc(O)ccc3c12	i	0.84	27	107	5	89	0.1
Cc1cccc(C(=O)NNC(=O)c2ccc(Cl)cc2)c1O	i	0.96	15	128	-5	107	-3.6
O=C(NNC1=Nc2ccccc2SC1)c1ccccc1F	i	0.94	x	x	x	93	x
CC(C)N1CCC(N2CCN(C3CCCC3)CC2CCO)CC1 (configuration not stated)	i	1	x	x	-6	92	x
CCOC(=O)c1sc(C)c2c(=O)n(CCc3ccccc3)nnc12	i	0.97	x	x	1	53	-0.9
CN(C)c1cccc(C(=O)n2cc(C(=O)c3cc(F)ccc3O)cn2)c1	i	0.97	x	x	-11	93	-2.0
O=S(=O)(c1ccc(Cl)cc1)N1CCN(Cc2c[nH]c3ccccc23)CC1	i	0.84	-55	87	4	108	-0.6
O=C(OCC(=O)N1CCc2ccccc21)c1ccccc1	i	1	-3	84	-4	106	0.2

Screening results: PubChem BioAssay, several laboratories

Outcome played no part in choosing rows; overall some 1.3% were active at least once.
